Screening data (PubChem BioAssay)
miR-21 reporter = miR-21 reporter, rising signal; 340,000 tested, under 10 active; Potency, µM (top dose mostly 38.3 µM), for inactives: at the top dose reporter change, positive = more light; HeLa miR-21 FLuc reporter, luciferase, 48 h; active = well fitted rising curve with a large enough effect; inconclusive = small, poorly fitted or top-dose-only effect; inactive = no such curve, though single readings can be large or run the other way;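 further: % of control where 0% means no effect; miR-21 action dims this reporter so a rising signal means less miR-21 action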
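HeLa cells stably expressing CMV-driven firefly luciferase with a downstream miR-21 binding sequence, endogenously expressing miR-21, were treated with titrations (up to about 40uM final) for 48 hours at 37 degree Celsius. Luciferase luminescence was read after lysis.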
Rango complex inh = prevents formation of the Rango-importin beta complex; Q14974; Rango CFP/YFP FRET sensor + importin beta, 45 min; 0.031% of 340,000 active; Potency, µM (top dose mostly 92.2 µM), for the others: at the highest dose inhibition of complex formation; active = rising FRET ratio curve, often small or poorly fitted; inconclusive = mostly compound fluorescence or quenching in the first reads; inactive = flat curves in all reads;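 further: potency means the concentration at half of the fitted maximal effect; 0% = DMSO wells and 100% = buffer wells lacking importin beta; nearly all actives have a fitted effect of over 15% in size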
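FRET biosensor Rango (snurportin 1 IBB between N-terminal EYFP and C-terminal Cerulean), 50 nM in PBS/1 mM DTT/0.02% Tween-20/0.1% BSA, preincubated 5 min RT with compound; 0.125 microM importin beta added, 45 min RT, CFP/YFP FRET ratio read.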
Rango dissoc inh = inhibitors of RanGTP-induced Rango-importin beta complex dissociation; Biochemical FRET Rango-importin beta, RanGTP-induced dissociation; 0.071% of 340,000 active; Potency, µM (series often up to 46.1 µM), for inactives: top-dose activity change, negative = inhibition; O95149+P62826; active means falling FRET ratio curve, often poorly fitted, with flat reads before Ran was added; inconclusive means other falling curves, or compound fluorescence or quenching; inactive means flat or rising ratio curve;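 further: potency means the concentration at half of the fitted maximal effect; % of control where 0% means no effect; nearly all actives have a fitted effect of over 45% in size; -100% = wells without RanGTP and RCC1; the record marks most hits as doubtful in a second field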
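Recombinant Rango FRET biosensor (EYFP–snurportin 1 IBB–cerulean CFP10) at 0.1 uM premixed with 0.25 uM importin beta in PBS, 1 mM DTT, 0.02% Tween-20, 0.1% BSA. Compound added 5 min; RanGTP-RCC1 (0.6 uM Ran, 2 mM GTP, 0.2 uM RCC1) then triggers release, read at 45 min.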
GLA inh pH 4.5 = inhibitors of human alpha-galactosidase A at pH 4.5 | P06280 | purified enzyme, 4-MU-alpha-Gal fluorescence, pH 4.5 | activity change, negative = inhibition, % at 105 µM | 230,000 tested, under 10 active | AID 1467; inconclusive = small, poorly fitted or top-dose-only inhibition, or a rising curve; inactive = flat fitted curve, though single readings scatter; no compound was filed as active;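 further: 0% = full activity with enzyme and -100% = basal without enzyme; dose as in the result columns while the protocol names 77 µM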
Target sequence (P06280 whole entry, looked up): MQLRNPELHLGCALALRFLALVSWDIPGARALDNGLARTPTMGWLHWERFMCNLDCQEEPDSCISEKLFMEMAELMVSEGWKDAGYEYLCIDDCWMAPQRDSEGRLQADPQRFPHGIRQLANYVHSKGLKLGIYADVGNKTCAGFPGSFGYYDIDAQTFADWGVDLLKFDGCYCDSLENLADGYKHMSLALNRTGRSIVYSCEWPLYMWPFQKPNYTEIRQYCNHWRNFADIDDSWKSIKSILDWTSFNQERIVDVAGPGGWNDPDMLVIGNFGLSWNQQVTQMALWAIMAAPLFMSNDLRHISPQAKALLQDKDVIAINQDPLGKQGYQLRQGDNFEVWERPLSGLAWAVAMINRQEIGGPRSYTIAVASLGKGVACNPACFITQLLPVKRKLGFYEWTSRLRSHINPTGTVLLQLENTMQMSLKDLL
Starred values were filed as active, the others as inactive; & = joins results of further samples.

What do the screens show for `O=C(O)c1ccc2c(=O)n(-c3ccc(F)c(Cl)c3)c(=S)[nH]c2c1`?
miR-21 reporter: 0%; Rango complex inh: -3.0%; Rango dissoc inh: -14%; GLA inh pH 4.5: -18

How did OCCC1CN(Cc2cccn2-c2ncccn2)CCN1Cc1ccc(F)cc1 (centres undefined) do in these assays?
miR-21 reporter: 0%; Rango complex inh: 1.9%; Rango dissoc inh: -11%; GLA inh pH 4.5: -9

Results for COCCNc1nnnc2c1sc1nc(N3CCOCC3)c3c(c12)CC(C)(C)OC3 ?
miR-21 reporter: -2%; Rango complex inh: -1.0%; Rango dissoc inh: -13%; GLA inh pH 4.5: 3

What do the screens show for `CC(=O)Nc1ccc(S(=O)(=O)NCC(=O)OCC(=O)NC23CC4CC(CC(C4)C2)C3)cc1`?
miR-21 reporter: -13%; Rango complex inh: 2.3%; Rango dissoc inh: -5%; GLA inh pH 4.5: -1

What do the screens show for `COc1ccc([C@@]2(C(C)C)ON(c3ccccc3C(F)(F)F)C2=O)cc1`?
Rango complex inh: -3.7%; Rango dissoc inh: 9%

What do the screens show for `COc1ccccc1C(=O)Nc1ccnn1C1CCN(C2CCSCC2)CC1`?
miR-21 reporter: -10%; Rango complex inh: -4.0%; Rango dissoc inh: -12%

How did CN(C(=O)COC(=O)c1ccc(=O)n(Cc2ccccc2)n1)C1CCCCC1 do in these assays?
Rango complex inh: 4.8%; Rango dissoc inh: 1%

Results for CN1CCc2cccc3c2[C@H]1Cc1ccc(O)c(O)c1-3 ?
miR-21 reporter: inconclusive; Rango complex inh: -4.1%&1.2%&-4.6%; Rango dissoc inh: -27%&-13%&-21%; GLA inh pH 4.5: 8

How did CN(Cc1cccs1)C(=O)COc1ccc(-c2nnco2)cc1 do in these assays?
miR-21 reporter: -7%; Rango complex inh: 0.6%; Rango dissoc inh: -3%; GLA inh pH 4.5: -2

Results for O=C(CNS(=O)(=O)c1ccc2ccccc2c1)NCCc1ccccn1 ?
miR-21 reporter: -7%; Rango complex inh: -0.7%; Rango dissoc inh: -5%; GLA inh pH 4.5: -4

How did c1ccc(CNc2ncnc3nc[nH]c23)cc1 do in these assays?
miR-21 reporter: -14%; Rango complex inh: 0.5%; Rango dissoc inh: -4%; GLA inh pH 4.5: -4&0

Results for O=C(O)CCc1ccc(-c2cccs2)n1NC(=O)c1ccc(O)cc1 ?
miR-21 reporter: 1%; Rango complex inh: 2.6%; Rango dissoc inh: -17%; GLA inh pH 4.5: 2

What do the screens show for `O=S(=O)(Nc1cccc(S(=O)(=O)N2CCCC2)c1)c1ccccc1F`?
Rango complex inh: -1.4%; Rango dissoc inh: 8%

What do the screens show for `Cc1c2c(nc3ccccc13)OCC2`?
miR-21 reporter: -3%; Rango complex inh: 5.7%; Rango dissoc inh: 0%; GLA inh pH 4.5: -10&5

Results for O=C(CCCN1CCN(c2ccccn2)CC1)c1ccc(F)cc1 ?
Rango complex inh: 0.6%; Rango dissoc inh: -3%; GLA inh pH 4.5: 0&1

Results for O=C(Cc1cc(=O)[nH][nH]1)N/N=C/c1ccccc1Cl ?
miR-21 reporter: 0%; Rango complex inh: 1.8%; Rango dissoc inh: 13%; GLA inh pH 4.5: -10

Results for N#CC(c1cccc(Cl)c1)c1ncc(C(F)(F)F)cc1Cl (centres undefined) ?
miR-21 reporter: -2%; Rango complex inh: -5.9%; Rango dissoc inh: -1%; GLA inh pH 4.5: -10

What do the screens show for `CCOc1ccc(N2CC(C(=O)NC3CCSC3=O)CC2=O)cc1` (centres undefined)?
miR-21 reporter: -1%; Rango complex inh: 0.5%; Rango dissoc inh: 5%

Results for CC(C)CNC(=O)C(=O)Nc1ccc(N(C)C)cc1 ?
miR-21 reporter: -48%; Rango complex inh: 0.0%; Rango dissoc inh: 2%; GLA inh pH 4.5: 1

Results for CCOC(=O)[C@H]1[C@H]2COc3ccccc3[C@@H]2N2C(=O)c3ccccc3NC(=O)[C@@]12C ?
Rango complex inh: 0.0%; Rango dissoc inh: -10%

How did O=C(N/N=C(\c1ccccc1)c1cccnc1)c1ccc(O)cc1 do in these assays?
miR-21 reporter: -2%; Rango complex inh: -0.5%; Rango dissoc inh: 11%

How did COc1ccc(S(=O)(=O)N(C)C[C@H]2Oc3ccc(NS(=O)(=O)c4cn(C)cn4)cc3C(=O)N([C@H](C)CO)C[C@@H]2C)cc1 do in these assays?
Rango complex inh: -5.7%; Rango dissoc inh: 0%

Results for CCOc1ccc(S(=O)(=O)N2CCCCC2)cc1NC(=O)Cc1cccc(C(F)(F)F)c1 ?
Rango complex inh: -6.7%; Rango dissoc inh: -6%

How did Cc1ccc(NC(=O)C(C)OC(=O)c2cc(=O)[nH]c3ccccc23)cc1S(=O)(=O)N1CCOCC1 (centres undefined) do in these assays?
Rango complex inh: -0.9%; Rango dissoc inh: 0%

Results for CC1(C(=O)CSc2nc3ccccc3[nH]2)CCC(=O)O1 (centres undefined) ?
miR-21 reporter: -13%; Rango complex inh: -0.9%; Rango dissoc inh: -13%; GLA inh pH 4.5: 2

How did Cn1cnnc1SCC(=O)c1ccc2c(c1)CCCC2 do in these assays?
miR-21 reporter: -38%; Rango complex inh: -3.9%; Rango dissoc inh: -5%; GLA inh pH 4.5: 3

How did Cc1nnc(SCc2nc3sc(C(=O)O)c(C)c3c(=O)[nH]2)s1 do in these assays?
miR-21 reporter: 2%; Rango complex inh: inconclusive; Rango dissoc inh: -12%; GLA inh pH 4.5: 2

How did COc1ccccc1CNC(=O)c1ccc(-c2ccccc2)cc1 do in these assays?
miR-21 reporter: -31%; Rango complex inh: 5.8%; Rango dissoc inh: 0%; GLA inh pH 4.5: 4

How did O=C(NCc1ccccc1)c1ccccc1C(=O)c1ncc[nH]1 do in these assays?
miR-21 reporter: -1%; Rango complex inh: -0.6%; Rango dissoc inh: 10%; GLA inh pH 4.5: -3

Results for O=C(O)c1ccccc1Nc1ccc([N+](=O)[O-])c2nonc12 ?
miR-21 reporter: -5%; Rango complex inh: 14%; Rango dissoc inh: -18%

Results for COc1ccc(CCn2nnnc2C(CC(C)C)N2CCC(C(N)=O)CC2)cc1OC (centres undefined) ?
miR-21 reporter: 0%; Rango complex inh: -1.0%; Rango dissoc inh: 13%; GLA inh pH 4.5: 0

Results for CC(=O)O[C@H]1C(=O)[C@@]2(C)[C@H]([C@H](OC(=O)c3ccccc3)[C@]3(O)C[C@H](OC(=O)[C@H](O)[C@@H](NC(=O)c4ccccc4)c4ccccc4)C(C)=C1C3(C)C)[C@]1(OC(C)=O)CO[C@@H]1C[C@@H]2O ?
Rango complex inh: 5.3%; Rango dissoc inh: 12%; GLA inh pH 4.5: -4

Results for COc1ccc(CNc2nc(=S)[nH]c3cc(OC)c(OC)cc23)cc1 ?
miR-21 reporter: 1%; Rango complex inh: 2.2%; Rango dissoc inh: 3%

Results for COc1ccccc1N1CCN(C(=O)Cn2nc3n(C)c4ccccc4n3c(=O)c2=O)CC1 ?
miR-21 reporter: -1%; GLA inh pH 4.5: 4

Results for CNCC(=O)Nc1c(C)n[nH]c1C ?
miR-21 reporter: 3%; Rango complex inh: -6.0%; Rango dissoc inh: -14%; GLA inh pH 4.5: 7

What do the screens show for `CCOc1ccc(-c2nnc3ccc(SC(C)C)nn23)cc1`?
miR-21 reporter: -11%; Rango complex inh: -11%; Rango dissoc inh: -22%; GLA inh pH 4.5: -7

What do the screens show for `CCCN1C(=O)CC(Sc2ncccc2C(=O)O)C1=O` (centres undefined)?
miR-21 reporter: -2%; Rango complex inh: 2.5%; Rango dissoc inh: 1%; GLA inh pH 4.5: 1

Results for Cc1nnc(NC(=O)CSc2nnc(C)n2-c2ccc(F)cc2)s1 ?
miR-21 reporter: 0%; Rango complex inh: 2.0%; Rango dissoc inh: 11%; GLA inh pH 4.5: 4

What do the screens show for `O=C(O)c1ccc(C(=O)c2ccc3c(c2)C(=O)N(CCO)C3=O)cc1`?
miR-21 reporter: 0%; Rango complex inh: 1.0%; Rango dissoc inh: 16%; GLA inh pH 4.5: 5

How did CN(CCCNC(=O)c1cccn2c(=O)c3ccccc3nc12)Cc1ccccc1 do in these assays?
miR-21 reporter: -3%; Rango complex inh: inconclusive; Rango dissoc inh: inconclusive; GLA inh pH 4.5: -26

How did Cc1cccc(N2CCN(C(=O)c3cccc(S(=O)(=O)N4CCOCC4)c3)CC2)c1C do in these assays?
Rango complex inh: -0.7%; Rango dissoc inh: 23%

What do the screens show for `CCCn1c(N)c(C(=O)COC(=O)CCS(=O)(=O)c2ccc(C)cc2)c(=O)[nH]c1=O`?
miR-21 reporter: 6%; Rango complex inh: -0.8%; Rango dissoc inh: 9%

Results for COC(=O)Cc1c(C)nc2nc(NCc3ccc(Cl)cc3)[nH]n2c1=O ?
miR-21 reporter: -18%; Rango complex inh: -0.3%; Rango dissoc inh: -8%; GLA inh pH 4.5: 1

Results for CN1CCN(CC(=O)Nc2ccc(Oc3ccccc3)cc2)CC1 ?
miR-21 reporter: -8%; Rango complex inh: 1.3%; Rango dissoc inh: -15%; GLA inh pH 4.5: 1

What do the screens show for `CC(=O)OCC1=C(C(=O)O)N2C(=O)C(NC(=O)c3ccc(F)cc3)C2SC1` (centres undefined)?
miR-21 reporter: -5%; Rango complex inh: 0.0%; Rango dissoc inh: 1%; GLA inh pH 4.5: -1

Results for COc1ccc(S(=O)(=O)NN(C)c2nc(C(F)(F)F)nc3ccccc23)cc1 ?
miR-21 reporter: -1%; Rango complex inh: 5.1%; Rango dissoc inh: 1%; GLA inh pH 4.5: 3

How did O=C1N[C@@H](Cc2cnc[nH]2)C(=O)N2CCC[C@@H]12 do in these assays?
miR-21 reporter: -3%; Rango complex inh: -3.6%; Rango dissoc inh: -19%

Results for CCc1ccccc1NC(=O)CN1C(=O)c2ccccc2S1(=O)=O ?
miR-21 reporter: 0%; Rango complex inh: -2.9%; Rango dissoc inh: -20%

Results for O=C(CN1CCN(Cc2ccccc2Cl)C1=O)NCCCN1CCOCC1 ?
miR-21 reporter: 8%; Rango complex inh: 0.6%; Rango dissoc inh: 24%; GLA inh pH 4.5: -3

How did O=C(COC(=O)c1ccccc1)Nc1ncc([N+](=O)[O-])s1 do in these assays?
Rango complex inh: -0.7%; Rango dissoc inh: -15%

Random excerpt: 4 compounds from above
How did O=C1N[C@@H](Cc2cnc[nH]2)C(=O)N2CCC[C@@H]12 do in these assays?
miR-21 reporter: -3%; Rango complex inh: -3.6%; Rango dissoc inh: -19%

What do the screens show for `CC(=O)OCC1=C(C(=O)O)N2C(=O)C(NC(=O)c3ccc(F)cc3)C2SC1` (centres undefined)?
miR-21 reporter: -5%; Rango complex inh: 0.0%; Rango dissoc inh: 1%; GLA inh pH 4.5: -1

Results for COC(=O)Cc1c(C)nc2nc(NCc3ccc(Cl)cc3)[nH]n2c1=O ?
miR-21 reporter: -18%; Rango complex inh: -0.3%; Rango dissoc inh: -8%; GLA inh pH 4.5: 1

Results for COc1ccc(S(=O)(=O)NN(C)c2nc(C(F)(F)F)nc3ccccc23)cc1 ?
miR-21 reporter: -1%; Rango complex inh: 5.1%; Rango dissoc inh: 1%; GLA inh pH 4.5: 3

Additional records follow.
What do the screens show for `O=C(NCc1ccco1)c1ccc2c(=O)n(-c3ccccc3)c(=O)n(Cc3cccc(F)c3)c2c1`?
miR-21 reporter: -6%; GLA inh pH 4.5: 6

How did Nc1c(C(=O)NCc2ccc3c(c2)OCO3)nnn1CC(=O)Nc1ccc(Br)cc1 do in these assays?
miR-21 reporter: 3%&-2%; Rango complex inh: -0.8%; Rango dissoc inh: 10%

What do the screens show for `CCC(=O)c1ccc(OCC(=O)OCC(=O)NCC2CCCCC2)cc1`?
Rango complex inh: -1.4%; Rango dissoc inh: -12%

What do the screens show for `Cc1ccc2c(CN3CCCCC3CCO)cc(=O)oc2c1` (centres undefined)?
miR-21 reporter: -5%; Rango complex inh: -1.0%; Rango dissoc inh: -20%

How did COc1ccc(CC(=O)NCC(=O)N=Nc2c(O)[nH]c3ccccc23)cc1 do in these assays?
miR-21 reporter: 0%; Rango complex inh: 3.4%; Rango dissoc inh: 3%

The list is partial; count on the stated rates, not on these rows.
